# ALR inh = human ALR oxidase inhibition via reduced H2O2 | 290,000 tested, 3.8% active | inhibition, % (test concentration not listed) | purified ALR, DTT oxidation, H2O2 HRP-luminol luminescence | P55789;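 active = mean and each replicate at 75% or more; inconclusive = only one of the two met; inactive = neither met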;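 also: stock transfer was 7.5 nL into about 7.5 µL; 0% = neutral wells and 100% = wells with inactivated enzyme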
# A1 inh = inhibitors of the anti-apoptotic protein A1, read as caspase activation. MEF A1-2A-BIM cells, Caspase-Glo 3/7 luminescence, 3 h; percent of clofoctol response, vehicle zero. caspase activation, % (no concentration beside the values). 330,000 tested, 0.066% active. AID 2462;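 active = over half of replicate activation scores above 10%, or exactly half above 10 with the replicate mean above 10; inconclusive = replicate mean below 10 yet half the replicates above 10; inactive = over half of replicates below 10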;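 also: wells of about 30 µL received 50 nL stock; many hits fall short of the cut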
# Beta2AR agonist = agonists of human beta-2 adrenergic receptor inducing internalization; 340,000 tested, 0.43% active; Am2.2-beta2AR cells, FAP receptor internalization, flow cytometry; reference of the scale not given here; response, % (concentration not given with the values); P07550;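 active = response above a set limit, near 3 SD of response in nonfluorescent compounds, cut at about 42% in these data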;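 also: stock transfer was 100 nL into about 11 µL; a reference agonist was the positive control; negative values mostly stem from fluorescent compounds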
# LANA-H2B inh = blocks KSHV LANA binding to histone H2A/H2B | cell-free LANA-H2A/H2B peptide, fluorescence polarization | inhibition, % (test concentration not listed) | 320,000 tested, 0.6% active | AID 2629; in the data active = inhibition mostly above about 10%, no sharp cut-off; inactive = mostly below about 6.7%;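 also: stock transfer was 7.5 nL into about 10 µL; 0% = median of vehicle wells and 100% = median of positive control wells; one replicate is shown; the record names a cut of 25% in any replicate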
# Target sequence (Q9QR71 whole entry, looked up): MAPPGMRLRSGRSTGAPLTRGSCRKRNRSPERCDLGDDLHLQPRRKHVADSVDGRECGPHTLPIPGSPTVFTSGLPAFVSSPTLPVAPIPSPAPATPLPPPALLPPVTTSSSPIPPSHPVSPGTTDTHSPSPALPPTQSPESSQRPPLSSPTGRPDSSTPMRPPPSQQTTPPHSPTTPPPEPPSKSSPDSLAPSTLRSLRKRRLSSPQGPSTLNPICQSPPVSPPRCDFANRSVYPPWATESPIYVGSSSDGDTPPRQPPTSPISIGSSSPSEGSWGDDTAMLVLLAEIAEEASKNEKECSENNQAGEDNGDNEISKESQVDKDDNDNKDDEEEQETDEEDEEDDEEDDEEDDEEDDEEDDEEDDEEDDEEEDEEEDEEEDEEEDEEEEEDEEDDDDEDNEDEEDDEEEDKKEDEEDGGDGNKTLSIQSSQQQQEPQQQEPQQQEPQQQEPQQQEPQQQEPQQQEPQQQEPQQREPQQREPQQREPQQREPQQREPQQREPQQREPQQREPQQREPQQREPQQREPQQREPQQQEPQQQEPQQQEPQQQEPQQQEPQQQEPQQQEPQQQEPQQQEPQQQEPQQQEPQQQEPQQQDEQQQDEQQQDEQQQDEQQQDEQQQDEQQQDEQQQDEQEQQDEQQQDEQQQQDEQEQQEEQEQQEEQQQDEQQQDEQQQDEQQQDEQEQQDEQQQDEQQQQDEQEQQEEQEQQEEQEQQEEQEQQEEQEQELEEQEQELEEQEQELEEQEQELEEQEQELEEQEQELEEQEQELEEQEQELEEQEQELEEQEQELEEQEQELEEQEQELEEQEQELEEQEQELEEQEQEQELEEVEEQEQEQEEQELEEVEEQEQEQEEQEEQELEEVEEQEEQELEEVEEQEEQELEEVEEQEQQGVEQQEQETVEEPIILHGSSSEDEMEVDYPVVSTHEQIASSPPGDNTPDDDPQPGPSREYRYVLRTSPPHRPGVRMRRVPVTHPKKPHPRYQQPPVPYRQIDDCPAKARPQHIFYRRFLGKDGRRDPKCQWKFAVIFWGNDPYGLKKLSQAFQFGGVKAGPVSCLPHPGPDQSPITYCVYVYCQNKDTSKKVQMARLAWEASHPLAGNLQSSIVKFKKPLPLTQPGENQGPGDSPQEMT
# T cruzi inh = blocks replication of Trypanosoma cruzi; T. cruzi beta-gal in NIH3T3, luminescence, 90 h; inhibition, % (test concentration not listed); 300,000 tested, 1.4% active;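 active = mean inhibition across valid replicates above about 55%, limit read from the data; inconclusive = mean below that limit but half or more replicates reach it; inactive = mean below it, under half of replicates reach it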;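 also: signal also drops with host cell toxicity which is not excluded here; 0% = plate median of DMSO wells and 100% = zero luminescence signal; higher percent means less beta-gal luminescence so fewer parasites; stock transfer was 50 nL into about 50 µL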
# rRNA inh HTS = inhibitors of bacterial rRNA selective over humanized ribosomes; E. coli WT GFP vs humanized-ribosome RFP mutants, fluorescence, 24 h; active compounds read low; DMSO median 0, no signal -100; GFP signal change (wild-type ribosome), % (concentration not given with the values); 350,000 tested, 1.6% active; AID 720706;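 active = significant combined selectivity score with lowered wild-type GFP, culture density cut under 30%, mutant RFP and density less affected; inactive = any of these conditions unmet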; also: one replicate is shown; some compounds called inactive have numbers as strong as hits
# Beta cell apopt = blocks beta cell apoptosis. 300,000 tested, 0.8% active. protection from apoptosis, % (concentration not given with the values). INS-1E cytokine-induced death, ATP luminescence, 48 h; percent of positive-control rescue, neutral wells zero;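 active = all replicates at 75% or more, or half of them and the mean; inconclusive = half reach 75% but not the mean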;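 also: 0% = cytokine-treated negative control wells and 100% = positive control rescue; higher means more ATP so stronger rescue from cytokine killing; wells of about 40 µL received 100 nL stock; the first replicate is given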
# Calb FLC = C. albicans growth modulation with fluconazole | growth inhibition, % (no concentration beside the values) | C. albicans CaCi-2 (fluconazole-resistant clinical isolate) + fluconazole, Alamar Blue growth, 48 h | AID 1979 | 300,000 tested, 0.57% active;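 active = most replicates above 75%; inconclusive = exactly half above 75%; inactive = most below 75%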;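 also: all wells also contain fluconazole at 8 µg/ml as a sub-toxic cotreatment; 0% = median of DMSO wells and 100% = median of geldanamycin control wells; wells of about 8 µL received 7.5 nL stock; the first replicate is given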
# rRNA inh HTS OD600 = recorded beside rRNA inh HTS, whose call it bears; OD600 change, %; measured here: OD600 growth;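 optical density of the mix in the first replicate; 0 = DMSO median and -100 = no signal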
# rRNA inh HTS RFP = second read-out of rRNA inh HTS, no call of its own (marks repeat the call); RFP signal change, %; measured here: RFP humanized mutant strains;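 first replicate; 0 = DMSO median and -100 = no signal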
# An asterisk follows results filed as active; ? = inconclusive; . = not tested or not shown.
SMILES,ALR inh,A1 inh,Beta2AR agonist,LANA-H2B inh,T cruzi inh,rRNA inh HTS,rRNA inh HTS OD600,rRNA inh HTS RFP,Beta cell apopt,Calb FLC
CCOC(=O)Cn1c(N)c(C(=O)OC)sc1=S,12,-0.7,7,2.4,-17,-5,-2,-5.0,-4,2
CCN(CC)S(=O)(=O)c1ccc(OC)c(NC(=S)Nc2cc(C)ccc2C)c1,21,0.7,.,5.2,3,.,.,.,0,?
CCOC(=O)c1cc(NC(=O)N(C)C2CCCCC2)c(C)nc1C,4,0.9,48*,-1.7,7,8,18,-1.2,-1,0
O=C(/C=C/c1cccs1)NCc1cccs1,-9,-1.6,8,-5.9,-5,3,-2,0.5,2,0
Cn1c(SCc2nc3ccccc3s2)nnc1-c1ccc2c(c1)OCO2,-9,0.7,-9,5.1,10,.,.,.,-2,13
COc1ccc(C2CCCN2C(=S)Nc2cccc(C)c2C)cc1OC (stereo unspecified),0,-0.1,1,-3.6,10,-8,-8,-11,-4,18
CC(C)Nc1ncnc2c1cnn2Cc1ccccc1Cl,-3,0.1,4,3.7,10,-4,2,2.2,-2,0
CSc1ccc(S(=O)(=O)NCCSc2ccccn2)cc1,0,-1.6,-5,0.4,5,-3,-11,6.3,.,17
O=C(CN(c1ccc(Cl)cc1)S(=O)(=O)c1ccc(Cl)c([N+](=O)[O-])c1)NCCc1ccc(F)cc1,-6,0.6,17,3.0,7,.,.,.,3,-6
CC(=O)Nc1ccc(NC(=O)C2C3CCC(C3)C2C(=O)O)cc1 (stereo unspecified),-10,2.1,-9,0.1,-9,6,9,-0.4,-3,2
Cn1c(=O)[nH]c(=O)c2c1nc(CN1CCOCC1)n2CCCO,-7,-0.3,10,-4.1,-6,16,8,-3.5,-1,-14
NC1=NC(=O)C(Cc2ccccc2)S1 (stereo unspecified),-4,0.4,-4,0.5,-11,11,5,1.5,-5,0
COC(=O)c1cc(NC(=O)c2ccccc2)c(=O)oc1C,-12,0.3,-19,-2.8,3,14,11,0.0,-3,2
Cc1ccc(C(=O)NNC(=O)CCC(=O)NCc2ccccc2)cc1Br,-11,-0.5,0,-2.0,.,1,16,8.1,-5,-5
COCCCNc1ncnc2nc[nH]c12,-31,0.3,-2,-2.5,-4,12,6,2.7,0,-1
O=C(Nc1nnc(-c2ccco2)o1)C1CC1,-23,-0.4,0,-0.9,-22,1,2,-0.2,-2,-3
COc1ccc(OC)c(CCNC(=O)Cn2ccc3cc(S(=O)(=O)N4CCCC4)ccc32)c1,-12,1.6,0,9.2,15,-7,-10,-2.6,0,10
Cn1c(=NC(=O)C2CCCCC2)sc2cc([N+](=O)[O-])ccc21,-3,0.8,-6,0.8,-6,1,0,3.7,-4,1
Cc1ccc(Oc2ncccc2C(=O)NC2CCSC2=O)cc1 (stereo unspecified),-10,0.0,9,3.4,-7,11,-2,0.2,.,-12
O=C(c1ccc(F)cc1F)N1CCCC(c2nc(-c3cccs3)no2)C1 (stereo unspecified),.,0.0,-6,-5.2,0,-7,-11,0.9,-3,6
Cc1ccc(OCCCC(=O)Nc2ccc(N3CCOCC3)cc2)cc1,-11,1.3,-14,2.9,24,.,.,.,.,-4
Cc1nn(Cc2noc(C(=O)NCCc3ccccn3)n2)c(C)c1Br,-3,0.3,1,1.4,-3,-3,-7,5.4,-1,-1
NC(=O)C1CCN(C(=O)c2cnn(-c3ccccc3)c2NC(=O)c2ccco2)CC1,-2,-0.3,-7,-4.8,-25,.,.,.,-1,?
O=[N+]([O-])c1ccc(/C=N/NC(=S)Nc2ccc(Cl)cc2Cl)s1,-7,-0.6,-11,-0.6,56*,-19*,9.9*,7.3*,25,107*

# Sorted by number of heavy atoms (falling): some entries from above
SMILES,ALR inh,A1 inh,Beta2AR agonist,LANA-H2B inh,T cruzi inh,rRNA inh HTS,rRNA inh HTS OD600,rRNA inh HTS RFP,Beta cell apopt,Calb FLC
Cc1ccc(OCCCC(=O)Nc2ccc(N3CCOCC3)cc2)cc1,-11,1.3,-14,2.9,24,.,.,.,.,-4
Cc1ccc(Oc2ncccc2C(=O)NC2CCSC2=O)cc1 (stereo unspecified),-10,0.0,9,3.4,-7,11,-2,0.2,.,-12
COC(=O)c1cc(NC(=O)c2ccccc2)c(=O)oc1C,-12,0.3,-19,-2.8,3,14,11,0.0,-3,2

# The list continues:
SMILES,ALR inh,A1 inh,Beta2AR agonist,LANA-H2B inh,T cruzi inh,rRNA inh HTS,rRNA inh HTS OD600,rRNA inh HTS RFP,Beta cell apopt,Calb FLC
COc1ccc(S(=O)(=O)N2CCCC(C(=O)Nc3cccc(C(C)=O)c3)C2)cc1 (stereo unspecified),3,0.2,1,-1.7,-4,.,.,.,-5,10
CC1CCN(C(=O)COC(=O)c2cccc(NS(=O)(=O)c3ccccc3)c2)CC1,-2,-0.1,4,0.8,-2,-15,-10,6.1,-4,3
O=C(N/N=C/c1ccccc1)c1ccc(-c2ccccc2)cc1,-14,-0.1,8,1.8,-7,2,0,-3.7,3,11
CCN(CC)S(=O)(=O)c1ccc(Cl)c(NC(=O)COc2ccc(OC)cc2)c1,-4,0.8,-2,0.1,-6,12,4,-12,0,1
COCCn1c(SCC(=O)NCC2CCCO2)nc2c(c1=O)SC(C)C2 (stereo unspecified),-4,-0.7,-9,5.9,3,-2,7,-0.6,-3,-5
CS(=O)(=O)c1ccc(-c2sc3cc4c(cc3c2C(=O)NN2CCOCC2)OCO4)cc1,-1,-0.3,-1,-1.5,.,4,14,-2.5,4,.
Cc1ccc(-n2cc(C(=O)c3ccccc3O)cn2)cc1,-11,-7.4,-2,-3.6,-9,.,.,.,2,49
CC(=O)c1c(O)cc(C)n(Nc2nc(C)cc(C)n2)c1=O,2,0.1,-6,-0.6,-16,.,.,.,-9,-13
COc1ccccc1N(CC(=O)N1CCN(c2ccccc2)CC1)S(=O)(=O)c1ccc(C)cc1,3,-0.6,-4,1.9,-6,-9,-6,9.3,.,1
CC(=O)N(C)c1ccc(NC(=O)C(Sc2ccccc2)c2ccccc2)cc1 (stereo unspecified),-3,-0.1,-2,-2.2,2,-14,-13,0.6,.,-4
COC(=O)c1cn(Cc2ccccc2C)nn1,-13,-0.4,9,-2.5,1,1,-6,0.8,1,-4
CN(CC(=O)NCc1ccc(F)cc1)S(=O)(=O)c1cccc2nsnc12,-1,-1.9,-3,1.9,-14,.,.,.,-4,16
O=C(C1CCCCC1)N1CCCC(c2nc(-c3ccc(F)cc3)no2)C1 (stereo unspecified),-6,-0.7,-2,-6.6,9,.,.,.,-3,1
Cc1cc(C(=O)Nc2ccccc2C(=O)O)c(C)o1,12,-3.7,-4,6.5,-2,2,-9,-0.8,-3,-19
Cc1cc(C)c(N=Cc2c(O)n(-c3nccs3)c(=O)c3ccccc23)c(C)c1,7,-0.5,-4,0.9,11,.,.,.,2,3
Cc1ccc(S(=O)(=O)NCc2ccco2)c(C)c1C,32,0.5,-2,10,-21,.,.,.,-3,-1
Brc1cccc(CNCc2cccs2)c1,-2,-0.2,-5,3.0,-16,.,.,.,-11,-8
Nc1nc(F)cc(NCc2ccccc2)n1,-10,-0.1,10,-0.2,6,11,7,5.4,-6,-21
COc1cc(CN2CCC(CO)(CCOc3ccccc3)CC2)cc(OC)c1,-2,0.9,-11,0.0,-15,8,5,-0.9,0,-9
N#CC1(NC(=O)CSc2nnc(-c3ccccc3F)n2N)CCCCC1,-1,-0.7,-7,-1.5,-2,9,4,0.2,-1,5
COc1cc(OC)cc(-c2c(-c3ccc(F)cc3)c3cc(-c4cnc(OC)nc4)ccc3n2C)c1,-4,0.2,-3,0.0,.,.,.,.,1,.
Cc1c(Cl)cccc1N=c1c([N+](=O)[O-])nn(-c2ccccc2)n1O,-1,1.2,5,0.6,54,-9,11,-3.1,4,-3
CCOC(=O)c1cc(=O)n(-c2ccc(Cl)cc2C)[nH]1,.,0.6,7,1.4,-3,-10,-3,11,0,-19
CC(=O)Oc1ccc(-n2c(=O)c3ccccc3c3ccccc3c2=O)cc1,-4,-0.1,7,-10,4,-3,-1,-0.3,-5,7
O=C(c1cccnc1)N1CCN(C(=O)c2ccccc2F)CC1,-3,0.0,4,1.1,-9,.,.,.,-1,-2
Cc1ccc(Sc2ccc(NC(=O)CCl)cc2)cc1C,98*,0.3,8,5.1,49,.,.,.,0,-51
C=CCOC(=O)C1=C[C@H](c2ccc(Br)cc2)C[C@H](OCc2ccc(CO)cc2)O1,19,0.1,4,-0.7,0,.,.,.,-8,1
CC1CCCCN1C(=O)CN1C(=O)NC2(CCCCC2C)C1=O (stereo unspecified),4,-0.3,-4,2.1,.,8,10,-3.0,-4,.
CC(/C=N/NC(=O)c1cccc(F)c1)=C\c1ccccc1,-9,0.1,1,-4.2,5,-29,-17,-1.7,3,0
CCCOC(=O)Oc1ccc2c(=O)c(Oc3cc(C)cc(C)c3)coc2c1,-10,0.8,-4,2.6,-60,-7,-6,0.1,-4,19
CCOC(=O)CN(C(=O)CSc1nnc(-c2ccc(OC)c(OC)c2)o1)c1ccccc1,-14,-0.2,2,1.4,4,13,18,0.9,7,11
CC(C)c1nnc(NC(=O)C2CCN(C(=O)c3ccco3)CC2)s1,-13,-1.6,10,-1.5,2,2,6,2.4,.,7
Cc1cccc(NC(=O)CSc2nnc(Cn3nnc(-c4ccccc4)n3)n2-c2ccccc2)c1,.,0.2,-7,0.5,5,.,.,.,1,-9
COc1ccc(-n2c(Cc3cccn3C)nnc2SCC(=O)N2CCCc3ccccc32)cc1,1,0.7,-6,0.1,12,.,.,.,-1,2
O=C(O)c1ccccc1SCC(=O)N1CCCCC1,1,0.1,1,-7.0,-18,.,.,.,-7,-19
CCOC(=O)c1cc2c(C(F)(F)F)cc(-c3cccnc3)nc2o1,-2,-0.1,0,-5.7,-4,.,.,.,-2,9
COc1cccc(OCCSc2nc(C)c(Cc3ccccc3)c(=O)[nH]2)c1,-9,0.4,14,4.4,13,6,11,-1.7,1,1
CC(C)CN(C(=O)C1CCCO1)C1CCS(=O)(=O)C1 (stereo unspecified),-1,-0.2,2,1.7,-8,4,8,-0.5,-4,0
Cc1ccc(Nc2nnc(-c3ccncc3)s2)c(Br)c1,-3,-0.5,4,3.5,51,12,22,12,-6,0
Cc1cc(C(=O)NCc2ccccc2Cl)n(-c2ccccc2)n1,3,0.2,3,3.3,-6,-7,-8,-0.4,-4,-3
O=C(CN1c2ccccc2S(=O)(=O)c2ccccc21)Nc1ccccc1F,-6,0.2,-2,-3.5,-2,0,8,-0.9,-1,-3
Cn1c(SCC(=O)NC(=O)Nc2ccccc2)nnc1-c1ccncc1,2,-0.1,2,1.4,-13,5,15,9.1,-4,1
O=C(Cc1ccccc1)Nc1ccc(NC(=O)c2ccc(Br)cc2)cc1,.,0.6,-2,-1.6,-2,9,-3,-3.0,-4,0
CCOC(=O)c1[nH]c(C)c(C(=O)N2CCN(C(=O)c3ccco3)CC2)c1C,.,0.2,-5,4.4,-15,11,11,-4.4,.,1
Cc1nn(-c2cccc3cccnc23)c(=O)c2ccccc12,-2,0.1,-7,-3.0,5,.,.,.,-4,-5
COc1cc(/C=N/NC(=O)c2cccc(NC(=O)c3ccccc3)c2)ccc1O,98*,-0.8,23,2.0,-4,-2,3,2.4,7,-9

# Not all compounds are listed (hit frequency here may not be typical).
